Screens as filed in PubChem BioAssay.
Six1-Eya2 blk = Six1/Eya2 interaction inhibition; AlphaScreen GST-Six1/His-Eya2 binding, biochemical; active compounds read low; control for the full effect not named in the record; activity change, % (no concentration beside the values); hit rate 0.56% among 360,000; in the data active = activity change below about -65%; inconclusive = about -30% to -65%; inactive = above about -30%; note: % is set by controls: 0 for no effect and ±100 for the full control effect
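GST-Six1 + His-Eya2 (5X stock: 250/500 nM); Tris pH 8.0, 300 mM NaCl, 0.05% BSA, 0.02% Tween 20; GSH donor/Ni acceptor beads; 1 h 37 °C dark; AlphaScreen readout.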
TRPML1 inh = human mucolipin-1 channel inhibition; Q9GZU1; TRPML1-inducible cells, Ca2+ dye fluorescence, FDSS; active compounds read low; inhibition of EC80 agonist-evoked calcium signal; activity change, negative = inhibition, % (test concentration not listed); hit rate 0.02% among 390,000; in the data active means activity change below about -50%; inconclusive means about -30% to -50%; inactive means above about -30%;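 note: stimulus is agonist 54-4 at its EC80 concentration; % is set by controls: 0 for no effect and ±100 for the full control effect; compound concentration not given in the record; the text of the record puts the active cut at -80%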
Target sequence (Q9GZU1 whole entry, looked up): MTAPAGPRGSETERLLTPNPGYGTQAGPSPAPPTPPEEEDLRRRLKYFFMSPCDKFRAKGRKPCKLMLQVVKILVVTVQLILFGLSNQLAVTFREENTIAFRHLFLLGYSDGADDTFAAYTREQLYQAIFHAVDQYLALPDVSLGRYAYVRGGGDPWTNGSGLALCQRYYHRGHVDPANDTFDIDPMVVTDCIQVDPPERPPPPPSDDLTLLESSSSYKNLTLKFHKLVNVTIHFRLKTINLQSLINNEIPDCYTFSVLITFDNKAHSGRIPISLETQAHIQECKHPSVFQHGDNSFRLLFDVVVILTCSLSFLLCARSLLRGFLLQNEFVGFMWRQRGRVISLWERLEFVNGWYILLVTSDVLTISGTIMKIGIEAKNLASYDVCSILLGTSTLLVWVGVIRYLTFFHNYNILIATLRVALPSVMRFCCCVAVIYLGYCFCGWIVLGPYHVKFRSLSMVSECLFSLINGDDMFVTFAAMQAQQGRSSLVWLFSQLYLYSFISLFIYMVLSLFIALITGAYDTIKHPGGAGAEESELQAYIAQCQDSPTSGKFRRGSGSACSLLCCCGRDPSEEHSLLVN
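Calcium fluorescence in TRPML1-DL cells induced overnight with Tet: a 110 s read after compound pin addition, then a 110 s antagonist read after challenge with 54-4 at 4 uM final (EC80).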
D2 agonist = human D2 receptor agonism in beta-arrestin assay; P14416; DiscoveRx PathHunter D2 beta-arrestin, luminescence, 90 min; 100% = 57 uM dopamine signal; activation, % (no concentration beside the values); hit rate 0.084% among 360,000; AID 624465; in the data active = activation above about 40%; inconclusive = about 15% to 40%; inactive = below about 15%; note: compound concentration not given in the record; the text of the record calls up to 30% inactive
Target sequence (P14416 whole entry, looked up): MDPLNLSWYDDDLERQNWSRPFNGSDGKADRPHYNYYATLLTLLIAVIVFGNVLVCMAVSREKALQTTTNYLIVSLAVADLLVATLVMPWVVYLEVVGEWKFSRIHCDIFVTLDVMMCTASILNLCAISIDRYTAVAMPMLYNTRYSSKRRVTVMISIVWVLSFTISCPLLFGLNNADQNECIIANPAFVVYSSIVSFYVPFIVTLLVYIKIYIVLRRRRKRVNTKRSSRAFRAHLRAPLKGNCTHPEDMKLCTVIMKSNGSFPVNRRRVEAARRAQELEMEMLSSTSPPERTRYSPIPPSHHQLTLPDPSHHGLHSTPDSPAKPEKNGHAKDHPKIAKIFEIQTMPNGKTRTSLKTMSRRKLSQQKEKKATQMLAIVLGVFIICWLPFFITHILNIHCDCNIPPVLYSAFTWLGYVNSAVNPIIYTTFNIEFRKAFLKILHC
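DiscoveRx PathHunter D2 beta-arrestin cells (2,100/well) attached overnight, then compound-stimulated 90 min at 37 C in HBSS/10 mM HEPES/0.1% Tween-20 buffer; beta-galactosidase complementation read by luminescence after 1 h at ambient temperature. Dopamine 57 uM final (EC100) as control.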
D2 potentiator = human D2 receptor positive allosteric modulation; P14416; potentiation, % (concentration not given with the values); hit rate 0.23% among 360,000; DiscoveRx D2 beta-arrestin cells, luminescence, 90 min; 100% = 57 uM dopamine signal; active = potentiation of 50% or more; inconclusive = 30% to 50%; inactive = 30% or less;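 note: compound concentration not given in the record; tested on top of an EC20 dose of dopamine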
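PathHunter D2 cells, attached overnight at 37 deg C, received compound in DMSO plus dopamine at EC20 (50 nM final) for 90 min at 37 deg C. Beta-arrestin recruitment was read as luminescence after 1 h with detection reagent at ambient temperature.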
PINK1 expr mod = PINK1 expression modulation. Potency, µM (titrated, usually from 76.6 µM), for the others: at the highest dose activation (PINK1 increase), usual class: activators. PINK1 immunofluorescence, high-content cytometry, 24 h. AID 624263. hit rate 0.2% among 410,000; active = well fitted activation curve with a large enough effect; inconclusive = small, poorly fitted or top-dose-only effect; inactive = flat fitted curve, though single readings scatter; cell line not stated here;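 note: potency is the fitted concentration of half-maximal effect; % of control where 0% means no effect; nearly all actives have a fitted effect of over 65% in size; a mitochondrial uncoupler was the plate control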
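Compound titrations (5 concentrations, 24 h) on a stable cell line; DMSO and CCCP controls. Endpoint: fixed-cell PINK1 immunofluorescence with mitochondrial, cell and nuclear markers, scanned by microplate cytometer.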
TRPML1 agonist = agonists of human TRPML1 channel | activation, % (test concentration not listed) | AID 624414 | hit rate 0.12% among 410,000 | TRPML1-expressing cells, Ca2+ dye fluorescence, FDSS; host cell line not named in the record; reference of the full effect not given here; in the data active = activation above about 50%; inconclusive = about 30% to 50%; inactive = below about 30%; note: 0% is about no effect; the text of the record puts the active cut at 80%
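In this qHTS format, compounds were pin-transferred onto Ca8-dye-loaded TRPML1-DL cells induced with Tet overnight, and intracellular Ca2+ fluorescence was recorded kinetically for 110 s after a 10 s baseline. A subsequent 4uM final 54-4 (EC80) addition followed by a second 110 s read served as the antagonist phase.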
Numbers without * were called inactive; ? = inconclusive; / = no result given; & = joins results of further samples; [ ] = dose if it differs, or a comment.

Order of results – Six1-Eya2 blk, TRPML1 inh, D2 agonist, D2 potentiator, PINK1 expr mod, TRPML1 agonist
- COC(=O)C1(Cc2ccc(O)cc2)OC(=O)C(O)=C1c1ccc(O)cc1 (configuration not stated)
  -11.4, /, 7.5, -1.0, 0.1%, /
- CCN(CC)C(=O)COc1cc(C)c(Cl)c(C)c1
  6.6, -3.4, -1.2, -11.0, 1.2%[38.3 µM], 2.2
- O=C(COC(=O)c1cc(Cl)ccc1[N+](=O)[O-])Nc1cccc2ccccc12
  -2.1, 54.9, 7.6, 16.8, -0.8%, 4.3
- COc1cccc(CN(C(=O)c2cc3ccccc3oc2=O)C2CC2)c1
  -4.6, -25.2, -4.5, 1.3, 0.6%, 0.0
- C=CCN1C(=O)C2C(C(=O)NC3CCCC3)C3C=CC2(O3)C1C(=O)NC1CCCC1 (configuration not stated)
  -6.6, 19.1, 0.9, -2.2, 1.9%, 0.9
- CCOC(=O)N1CCN(S(=O)(=O)c2cc([N+](=O)[O-])ccc2C)CC1
  -0.7, 11.0, 3.0, -4.9, -0.3%, 3.1
- Cn1c(=O)c2c(nc(N3CCOCC3)n2Cc2ccccc2F)n(C)c1=O
  /, -6.6, /, /, 0.5%, -0.9
- CN(C)CC(C)(C)CNS(=O)(=O)c1cccc2nsnc12
  4.4, -7.5, 1.1, -6.3, -0.6%, -0.3
- CCOC(=O)C1=CCC(c2cccn2C(=O)OC(C)(C)C)N(S(=O)(=O)c2ccc(C)cc2)C1 (configuration not stated)
  -5.7, 50.1, -4.9, -9.3, 3.1%, 1.6
- O=C1c2ccccc2[C@@H]2C[C@@H](O)[C@H](Nc3ccccc3-c3ccccc3)CCN12
  -1.2, -3.7, -1.9, /, 1.9%, 0.1
- CCC(C)NC(=O)CS(=O)Cc1nc(-c2ccccc2C)oc1C (configuration not stated)
  19.3, -8.8, 2.8, -2.3, 2.9%, 0.3
- O=C(Cc1ccc(-n2cccc2)cc1)N1CCN(c2ccccc2F)CC1
  ?, -12.3, -1.3, -5.1, -3.7%, 1.1
- CCn1c(-c2ccc[nH]c2=O)nc2ccccc21
  2.7, -4.9, -4.2, -0.7, 1.2%, -0.3
- CC(=O)Nc1ccc(NC(=O)Cn2c(=O)n(-c3ccc(F)cc3)c(=O)c3oc4ccccc4c32)cc1
  -5.5, -3.0, -3.5, 0.3, 1.0%, 1.1
- COc1cccc(NC(=O)CSc2nnc(-c3ccc(C)cc3)o2)c1
  1.7, -7.4, -2.0, -1.9, -1.7%, 1.8
- Cc1c(/C(O)=C2/C(=O)C(=O)N(Cc3cccnc3)C2c2cccs2)cnn1-c1ccccc1 (configuration not stated)
  -3.1, -11.4, -0.4, -0.5, 0.5%, -0.3
- O=C(NC1CCCCC1)C(c1cccs1)N(CC1CCCO1)C(=O)c1csnn1 (configuration not stated)
  3.6, -18.0, -4.1, -8.9, 1.6%[38.3 µM], -0.6
- COc1ccc(NC(=O)C(Br)C(C)C)cc1 (configuration not stated)
  17.4, -6.1, -3.4, -4.1, 1.4%, -0.6
- Cc1ccc(NC(=O)CN2CCN(Cc3ccccc3)CC2)cc1Cl
  2.1, 6.7, -2.5, -12.5, 1.6%, 0.2
- CCOC(=O)c1ccc(NC(=O)c2ccc3c(c2)OCO3)cc1
  -0.1, 1.8, -1.7, 11.5, 1.3%, -0.4
- Cc1cccc(NC(=O)Cn2c(=O)n(C)c3ccccc32)c1
  -2.4, -2.0, -2.0, 1.5, -0.3%, -0.4
- CCN(CCNC(=O)C1CCCN(S(=O)(=O)CC)C1)c1ccccc1 (configuration not stated)
  -3.3, 40.4, -0.1, 5.3, -1.3%, -0.7
- CCCn1nc(-c2nnc(-c3ccc(C)c(C)c3)o2)c2ccccc2c1=O
  3.7, 35.7, -1.9, -8.6, -1.2%[38.3 µM], -0.1
- CN(C)C=NC(=O)c1cn(-c2ccc(F)cc2)c(=O)c2ccccc12
  -6.1, -8.2, 1.7, 0.4, -0.9%, -0.5
- CC1CCN(C(=O)CCCl)c2ccccc21 (configuration not stated)
  9.2, -3.5, 0.5, -2.4, 1.2%, 0.6
- COc1ccc(-c2csc(-c3cccs3)n2)c(OC)c1
  39.2, -3.3, -6.2, -14.7, 6.4%, -0.3
- CN(C)c1ccc(NC(=O)COC(=O)Cn2nnc3ccccc32)cc1
  1.2, -9.0, 0.2, -12.4, 1.3%, 1.7
- COc1cc(C(=O)NCCCNc2ccc([N+](=O)[O-])cc2)cc(OC)c1OC
  -17.4, 6.8, -4.0, -31.2, -0.9%, -0.1
- CC1C(c2ccccc2)=[N+]([O-])C2(CCCC2)N1O (configuration not stated)
  2.5, 3.6, -3.5, 2.6, -1.4%, 1.8
- CCN(CC(=O)Nc1cc(Cl)ccc1C)C(=O)CCS(=O)(=O)c1ccc(Cl)cc1
  -5.5, -15.6, 4.4, -35.9, 2.4%, 0.4

New compounds follow:
Order of results – Six1-Eya2 blk, TRPML1 inh, D2 agonist, D2 potentiator, PINK1 expr mod, TRPML1 agonist
- COc1ccccc1CNc1nc2ccccc2c2nc(-c3cccnc3)nn12
  /, 21.3, /, /, 1.7%, -0.1
- O=C(NCCc1ccccc1)c1ccc(Cl)c(S(=O)(=O)N2CCOCC2)c1
  -10.1, -9.2, -1.8, -13.1, 0.1%, 0.9
- O=C(O)/C=C/c1ccc(-c2cccc(C(F)(F)F)c2)o1
  -0.8, -15.2, -4.5, 1.4, 0.0%, 0.9
- COc1ccc(N(CC(=O)Nc2cc(C)ccc2OC)S(=O)(=O)c2c(C)noc2C)cc1
  -6.0, 17.0, -4.6, -2.9, 1.9%, 0.0
- Cc1cccc(Cn2cnc3c(NS(C)(=O)=O)c(C)c(C)cc32)c1
  -3.1, -23.1, -1.2, -20.3, -1.7%, 3.2
- COc1ccc(C2c3c(oc4ccc(C)cc4c3=O)C(=O)N2CCCN2CCOCC2)cc1OC (configuration not stated)
  /, 2.9, /, /, 0.0%, 0.3
- CS(=O)(=O)NCC(c1ccco1)N1CCN(c2ccc(F)cc2)CC1 (configuration not stated)
  1.4, -2.2&9.4, 3.1, 3.8, 2.8%&3.8%, 0.4&0.4
- Cc1c2cnn(CC(=O)N3CCN(c4ccccc4)CC3)c(=O)c2c(C)n1Cc1ccccc1Cl
  /, -10.9, /, /, 8.1%, -1.1
- O=C(Nc1ccccc1Cl)c1ccc(-n2cccn2)c([N+](=O)[O-])c1
  13.6, 30.5, 0.6, -8.2, 2.3%, 2.0
- Cc1ccc2c(c1)c1c(c(=O)n(-c3cccc(Cl)c3)c(=O)n1CC(=O)NCC1CCCO1)n2C (configuration not stated)
  /, 10.6, /, /, 1.6%, 0.6
- Cc1cccc(N(C)S(=O)(=O)c2ccc3[nH]cc(C(=O)N4CCOCC4)c(=O)c3c2)c1
  -6.5, -7.2, -1.0, -1.9, -0.7%, 0.7
- CCOc1ccccc1N(CC(=O)Nc1ccc(OC)cc1OC)S(=O)(=O)c1ccccc1
  18.9, 39.6, 3.7, -0.5, 8.4%, 1.2
- O=C(Cn1nc([N+](=O)[O-])nc1Br)NC(c1ccccc1)c1ccccc1
  -0.4, 13.8, 4.8, 58.0*, 4.2%, 1.4
- CC1CCCC(C)N1c1nnc(NC(=O)Cn2c(=O)oc3ccccc32)s1 (configuration not stated)
  0.5, 8.1, -4.4, -0.1, 0.5%, -0.1
- CC(=O)NC(c1ccccc1)c1nc(-c2ccc(S(C)(=O)=O)cc2)cs1 (configuration not stated)
  -1.0, /, 1.5, 1.5, 0.6%, -0.4
- Cc1ccccc1C(=O)Nc1ccc(-c2nc3ccc(C(=O)c4ccccc4)cc3[nH]2)cc1
  -17.3, -23.3, -1.9, 17.8, 11.9%, -0.7
- COc1ccc(Br)cc1CN1CCCC(C(=O)N2CCCCC2)C1 (configuration not stated)
  0.5, 1.6, -2.8, -23.5, -4.1%, 0.8
- Cc1c(CCOC(=O)c2cccc([N+](=O)[O-])c2)sc[n+]1CC(=O)c1ccccc1
  -11.1, -5.0, -19.0, -10.2, 1.8%, 1.7
- CCN(C(=O)COC(=O)c1c(C)noc1C)C1CCS(=O)(=O)C1 (configuration not stated)
  8.2, -15.4, -0.6, 4.3, -3.7%, 0.4
- O=C(CCc1ccccc1)NNC(=O)c1cccc(F)c1
  4.7, 7.4, 3.3, -2.5, 0.5%, -0.7
- COc1cc(/C=N/NC(N)=S)cc(Br)c1OCc1ccccc1F
  -10.1, -1.7, -7.6, 6.7, 13.8%, -0.4
- CCC(=O)Oc1ccc(C2NC(=O)c3ccccc3O2)cc1OC (configuration not stated)
  -3.4, 16.5, -0.1, -15.1, 0.8%, 0.0
- O=S(=O)(NCc1ccc(F)cc1)c1ccc(-c2cnc(C3CC3)o2)cc1
  14.8, 1.0&-10.5, 0.7, 3.3, 0.3%&4.0%, 2.1&0.0
- C[C@@H](C(=O)Nc1ccc2ccccc2c1)[C@H]1C[C@]1(C)[C@H](NC(=O)OCc1ccccc1)c1ccccc1
  -21.3, 8.9, -0.5, -7.4, 1.3%, 0.0
- COc1ccc(CCN(C)C(=O)CNC(=O)c2ccc3c(c2)OCO3)cc1OC
  23.3, -3.1, -1.4, -19.5, -1.9%, -0.3
- Cc1ccc(OCCOc2cccc(/C=N/NC(N)=O)c2)cc1
  5.3, -8.0, -0.3, 1.4, 4.7%, 0.6
- Cc1ccc(N2CCN(c3nc4ccccc4c4nnc(C)n34)CC2)c(C)c1
  /, 13.0, /, /, -0.2%, 2.4
- CCCCOc1ccc(S(=O)(=O)NC(=O)C2(C)CCN2C(=O)Cc2ccccc2Cl)cc1 (configuration not stated)
  5.9, /, -2.6, -4.2, 3.2%, -0.7
- O=C(c1ccc(F)cc1)N1CCN(c2ccc([N+](=O)[O-])c(N3CCCCC3)c2)CC1
  ?, 5.1, -1.3, -8.2, 2.3%[38.3 µM], -0.5
- COc1ccc(/C=N/N=C2/NC(=O)C(CC(=O)O)S2)cc1OCc1ccc(Cl)cc1Cl (configuration not stated)
  -14.9, 8.1, -2.0, 0.4, 5.2%, -0.4
- CC(=O)CSc1nc2ccccc2o1
  5.7, -4.9, -3.6, -0.1, 3.0%, 0.0
- COc1ccc(S(=O)(=O)N(C)c2ccc(C(N)=O)cc2)cc1
  -0.4, 5.8, -0.7, 3.8, 8.9%[38.3 µM], -0.2
- CCOC(=O)c1ccc2nc(C)c3c(c2c1)OC(C)C3 (configuration not stated)
  -4.7, 22.6, -2.1, -15.4, -0.9%, -1.6
